# Rango release inh: inhibition of RanGTP-driven Rango-importin beta dissociation. Biochemical FRET Rango-importin beta, RanGTP-induced dissociation. Potency, µM (top dose mostly 46.1 µM), for inactives: top-dose activity change, negative = inhibition. 0.071% of 340,000 active. AID 540253; active means falling FRET ratio curve, often poorly fitted, with flat reads before Ran was added; inconclusive means other falling curves, or compound fluorescence or quenching; inactive means flat or rising ratio curve;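 further: potency means the concentration at half of the fitted maximal effect; % of control where 0% means no effect; nearly all actives have a fitted effect of over 45% in size; -100% = wells without RanGTP and RCC1; the record marks most hits as doubtful in a second field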
#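 Recombinant Rango FRET biosensor (EYFP–snurportin 1 IBB–cerulean CFP10) at 0.1 uM premixed with 0.25 uM importin beta in PBS, 1 mM DTT, 0.02% Tween-20, 0.1% BSA. Compound added 5 min; RanGTP-RCC1 (0.6 uM Ran, 2 mM GTP, 0.2 uM RCC1) then triggers release, read at 45 min.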
# Rango-impB inh: Rango-importin beta binding inhibition | Potency, µM (highest dose often 92.2 µM), inactives show at the highest dose inhibition of complex formation | Rango CFP/YFP FRET sensor + importin beta, 45 min | Q14974 | 0.031% of 340,000 active | AID 540263; active = rising FRET ratio curve, often small or poorly fitted; inconclusive = mostly compound fluorescence or quenching in the first reads; inactive = flat curves in all reads;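 further: potency means the concentration at half of the fitted maximal effect; 0% = DMSO wells and 100% = buffer wells lacking importin beta; nearly all actives have a fitted effect of over 15% in size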
# Target sequence (Q14974 whole entry, looked up): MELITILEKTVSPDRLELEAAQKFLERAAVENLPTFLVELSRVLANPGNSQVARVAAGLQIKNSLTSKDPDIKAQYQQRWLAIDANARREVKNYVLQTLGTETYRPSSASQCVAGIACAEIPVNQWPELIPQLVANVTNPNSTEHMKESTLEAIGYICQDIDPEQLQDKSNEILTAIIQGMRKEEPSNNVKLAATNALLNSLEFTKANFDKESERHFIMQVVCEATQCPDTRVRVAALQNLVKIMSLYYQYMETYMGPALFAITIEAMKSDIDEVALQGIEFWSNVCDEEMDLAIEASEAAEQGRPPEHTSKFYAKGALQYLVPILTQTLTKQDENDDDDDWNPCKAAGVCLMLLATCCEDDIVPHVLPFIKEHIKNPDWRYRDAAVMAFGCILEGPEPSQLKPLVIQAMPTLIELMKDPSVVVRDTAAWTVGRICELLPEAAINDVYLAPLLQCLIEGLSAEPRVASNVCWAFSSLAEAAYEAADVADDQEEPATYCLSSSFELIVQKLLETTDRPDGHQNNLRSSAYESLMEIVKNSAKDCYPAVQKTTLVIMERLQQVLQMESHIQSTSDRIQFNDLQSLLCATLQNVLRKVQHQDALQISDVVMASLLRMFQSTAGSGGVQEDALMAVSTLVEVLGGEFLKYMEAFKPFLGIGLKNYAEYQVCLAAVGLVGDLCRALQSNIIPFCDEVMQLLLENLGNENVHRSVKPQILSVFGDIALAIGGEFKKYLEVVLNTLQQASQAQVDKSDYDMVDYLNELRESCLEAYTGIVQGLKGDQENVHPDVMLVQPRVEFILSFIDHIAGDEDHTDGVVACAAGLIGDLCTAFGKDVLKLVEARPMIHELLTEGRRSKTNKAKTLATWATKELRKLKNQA
#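 FRET biosensor (snurportin 1 IBB flanked by EYFP and cerulean), 50 nM, with compound 5 min, then 0.125 microM importin beta in PBS, 1 mM DTT, 0.02% Tween-20, 0.1% BSA. CFP/YFP ratio read after 45 min at room temperature; pre-read flags interference.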
# miR-21 reporter: miR-21 reporter, rising signal; HeLa miR-21 FLuc reporter, luciferase, 48 h; Potency, µM (top dose mostly 38.3 µM), inactives show at the highest dose reporter change, positive = more light; AID 2288; 340,000 tested, under 10 active; active = well fitted rising curve with a large enough effect; inconclusive = small, poorly fitted or top-dose-only effect; inactive = no such curve, though single readings can be large or run the other way;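 further: % of control where 0% means no effect; miR-21 action dims this reporter so a rising signal means less miR-21 action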
#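 Compounds were titrated across several concentrations (up to approximately 40 uM) and incubated 48 hours with HeLa miR-21-FLuc reporter cells (miR-21 target sequence downstream of FLuc, endogenous miR-21). Readout was firefly luciferase luminescence after lytic detection reagent.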
# GLA inh pH 4.5: inhibitors of human alpha-galactosidase A at pH 4.5. P06280. purified enzyme, 4-MU-alpha-Gal fluorescence, pH 4.5. activity change, negative = inhibition, % at 105 µM. 230,000 tested, under 10 active. AID 1467; inconclusive = small, poorly fitted or top-dose-only inhibition, or a rising curve; inactive = flat fitted curve, though single readings scatter; no compound was filed as active;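 further: 0% = full activity with enzyme and -100% = basal without enzyme; dose as in the result columns while the protocol names 77 µM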
# * = called active by the depositor; u = inconclusive; x = no result given; & = joins results of further samples; [ ] = remark or other dose. Not all compounds are listed; the hit share may differ from the screen's.
SMILES,Rango release inh,Rango-impB inh,miR-21 reporter,GLA inh pH 4.5
COc1cccc(C(=O)Nc2sc(C(C)C)cc2C(N)=O)c1OC,-16%,0.2%,-15%,-3
CC(C)Cn1c(N)c(C(=O)CSc2ncccn2)c(=O)n(C)c1=O,33%,0.5%,x,x
CCSc1nnc(-c2ccncc2)n1Cc1ccccc1,-12%,-2.3%,-4%,1
N=C1C(c2ccccc2)=C(O)CN1c1cccc2ccccc12,5%,1.8%,-2%,-1
Cc1ccc(CNC(=O)c2sc3nc4c(c(C(F)(F)F)c3c2N)CCC4)cc1,-6%,-0.2%,-2%,1
C/C(=N/O)c1ccc(Oc2cnccn2)cc1,2%,-2.9%,-17%,-6
CC[C@]12c3[nH]c4ccc(Cl)cc4c3CCN1C(=O)[C@@H](CC(=O)NCc1ccc(OC)c(OC)c1)C[C@@H]2C(=O)N1CCN(C(=O)c2ccco2)CC1,1%,-1.7%,x,x
COc1cccc(CNC(=O)CCc2ccc(OC)c(OC)c2)c1,-14%,6.0%,-5%,x
N#Cc1ccsc1NC(=O)CSc1ncn[nH]1,-15%,0.4%,-13%,-2
Cc1noc(C)c1C(=O)N(CC(=O)NC1CCCC1)Cc1ccccc1F,-7%,0.0%,-1%,-2
COc1c(F)c(F)c(C(=O)Nc2ccc(N3CCN(Cc4ccccc4)CC3)cc2)c(F)c1F,1%,2.1%,25%,7
C/C(=N\NC(=S)NCCc1ccccc1)c1ccc(Cl)cc1,2%,u,6%,-3
CCOc1ccc(NC2OCC(O)C(O)C2O)c([N+](=O)[O-])c1 (stereo unspecified),0%,0.0%,-1%,-10
COc1ccc(NC(=O)CCNS(=O)(=O)c2cccc3nsnc23)cc1OC,-2%,u,-4%&-10%,2
O=C(NCc1cccs1)C1CCN(S(=O)(=O)c2cccs2)CC1,1%,u,-1%,2
O=C(Nc1cccc(S(=O)(=O)N2CCCCC2)c1)c1ccccc1NS(=O)(=O)c1ccc(F)cc1,23%,0.9%,u,7
CC(=O)C(C)Oc1cc(C)cc2oc(=O)c(C)c(C)c12 (stereo unspecified),-3%,4.5%,3%,-13
COc1ccccc1CCNC(=O)Cc1cccs1,11%,0.6%,-10%,3
COCCNC(=S)N1CCN(c2cccc(C(F)(F)F)c2)CC1,0%,-1.6%,10%,-4
CCn1cc(CN2CCCC(CNC(=O)COc3ccccc3OC)C2)c(C)n1 (stereo unspecified),0%,6.8%,2%,x
COc1ccc(C)cc1NC(=O)C1CCCN(S(=O)(=O)c2cccc3cccnc23)C1 (stereo unspecified),0%,-0.9%,14%,x
CCCC(=O)NC(=S)Nc1ccc(S(=O)(=O)Nc2ccc(OCC)cc2)cc1,5%,1.0%,24%,2
O=c1cc(O)c2sc(Nc3ccc(Cl)c(F)c3)nc2[nH]1,u,u,-23%,6
Cc1cc(OCc2cc(C(=O)N(C)Cc3nonc3C)no2)cc(C)c1Cl,-8%,0.2%,-18%,x
CC(NC(=O)c1ccccc1)C(=O)N/N=C/c1ccccc1 (stereo unspecified),13%,-4.5%,0%,1[21.1 µM]
COc1ccccc1N1CCN(C(=O)C(F)F)CC1,-3%,-1.6%,1%,3
Clc1cccc(-c2ccc3ncnc(NCc4cccs4)c3c2)c1,6%,3.2%,x,x
O=C1CN(C(=S)Nc2ccccc2Cl)CCN1,10%,-1.2%,-4%,1
CC1CCN(C(=O)C2CCCN(S(=O)(=O)c3cccc4nsnc34)C2)CC1 (stereo unspecified),11%,-0.2%,2%,x
COc1cc2c(C(=O)O)c(C)n(-c3ccccc3)c2c2ccccc12,0%,3.5%,-2%,-6
CSc1ccc(/C=C/C(=O)Nc2ccccc2)cc1,11%,-0.9%,-9%,2
COc1cc(NC(=O)CCc2c(C)[nH]c(=O)c(C#N)c2C)cc(OC)c1,-4%,-0.4%,-9%,x
O=C(C1CCCN1S(=O)(=O)c1cccc2nsnc12)N1CCCCC1 (stereo unspecified),13%,-0.8%,-9%,2
CCCCOc1ccc(/C=C2/Sc3ccccc3C2=O)cc1,u,u,1%,-6
CN(Cc1ccccc1)C(=O)c1[nH]cnc1C(=O)Nc1ccccc1,1%,-2.8%,x,x
O=C(C1CC1)N1CCN(Cc2ccccc2)CC1,9%,11%,x,x
Cc1ccc(-n2nc3c(=O)n(CCCC(=O)NCc4ccccc4C)nc(C)c3c2C)cc1,-2%,u,1%&-4%,x
CN1/C(=C\C(=O)CSc2nncn2C)C(C)(C)c2ccccc21,1%,3.5%,-2%,-28
Cc1ccc(-c2ccc(CO)o2)cc1N,-12%,-0.8%,-29%,1
Cc1nn(C)c(C(=O)Nc2ccn(Cc3ccccc3F)n2)c1[N+](=O)[O-],-11%,-3.0%,-5%,-1

# Sorted by the number under GLA inh pH 4.5 (highest first): some entries from above
SMILES,Rango release inh,Rango-impB inh,miR-21 reporter,GLA inh pH 4.5
O=c1cc(O)c2sc(Nc3ccc(Cl)c(F)c3)nc2[nH]1,u,u,-23%,6
COc1ccccc1N1CCN(C(=O)C(F)F)CC1,-3%,-1.6%,1%,3
CSc1ccc(/C=C/C(=O)Nc2ccccc2)cc1,11%,-0.9%,-9%,2
O=C1CN(C(=S)Nc2ccccc2Cl)CCN1,10%,-1.2%,-4%,1
Cc1nn(C)c(C(=O)Nc2ccn(Cc3ccccc3F)n2)c1[N+](=O)[O-],-11%,-3.0%,-5%,-1
CCCCOc1ccc(/C=C2/Sc3ccccc3C2=O)cc1,u,u,1%,-6
CN1/C(=C\C(=O)CSc2nncn2C)C(C)(C)c2ccccc21,1%,3.5%,-2%,-28

# The results go on:
SMILES,Rango release inh,Rango-impB inh,miR-21 reporter,GLA inh pH 4.5
Cc1cccc(C)c1OCC(O)CN1CCC(CN2C(=O)c3cccc4cccc(c34)C2=O)CC1 (stereo unspecified),11%,-1.3%,-13%,-4
CCOc1ccc(-n2c(SCC(=O)Nc3ccc(OC)cc3)nc3sc4c(c3c2=O)CCN(C)C4)cc1,6%,6.0%,4%,x
CNc1ccccc1-c1nc2ccccc2n(C)c1=O,0%,0.4%,-1%,-8
CCN1C(=O)/C(=C2\C=Cc3ccccc3N2CC)SC1=S,9%,0.2%,-11%,-25
Cc1cc(C)nc(NC(=O)/C=C/c2ccc(Cl)cc2Cl)c1,11%,4.1%,-55%,-1
O=S(=O)(NCC(c1ccco1)N1CCOCC1)c1ccc(Cl)cc1 (stereo unspecified),-1%,-2.6%,-2%&-7%,3
COc1cccc(CN2CC(C(=O)N(C)CCCC3CCCC3)CCC2=O)c1 (stereo unspecified),-12%,1.5%,-6%,x
CCCCNc1nc(Nc2ccc(C)c(Cl)c2)c2cnn(C)c2n1,-11%,0.3%,1%,x
CCOc1ccc(CCN2C(=S)N([C@@H](CC(C)C)CN3CCCC3CN3C(=S)NC[C@@H]3CC(C)C)C[C@@H]2CC(C)C)cc1 (stereo partly specified),-10%,0.3%,x,x
Cc1cc(C)cc(OC(C)c2ccnc3nc(/N=C/N(C)C)nn23)c1 (stereo unspecified),11%,-0.9%,-20%,-2
CCOc1cc(N2CCOCC2)c(OCC)cc1NC(=O)COC(=O)[C@@H]1CCCN1S(=O)(=O)c1ccccc1F,u,0.0%,8%,-8
O=C(O)c1ccc(N2CCc3ccccc32)c([N+](=O)[O-])c1,1%,0.4%,-10%,x
Cc1ccc(NC(=O)CS(=O)CC(=O)N(c2ccccc2F)C(C)C(=O)NC2CCCC2)cc1 (stereo unspecified),8%,-1.5%,-2%,x
CC(=O)Nc1cc([N+](=O)[O-])ccc1OCc1ccccc1,6%,-1.3%,x,x
C#CC(C)(CC)NC(=O)Cn1nnc(-c2ccc(S(C)(=O)=O)cc2)n1 (stereo unspecified),-2%,3.3%,-4%,-6
COc1ccc([C@H]2/C=C\CN(Cc3ccc(N(C)C)cc3)[C@@H](C)C(=O)N2Cc2ccc(F)cc2)cc1,1%,3.0%,x,x
Cc1ccc(S(=O)(=O)N2CCOCC2)cc1C(=O)OCc1nnc(-c2ccccc2)o1,-2%,2.3%,x,x
O=C(CSc1ccc2nnc(-c3ccccn3)n2n1)NCc1ccco1,-2%,-3.9%,2%,1
CCN(Cc1ccccc1)C(=O)COc1ccccc1,8%,5.3%,-7%,x
O=C(COC(=O)COc1ccc(Cl)cc1)NC1CCCC1,-10%,3.3%,x,x
O=C(/C=C/C=C/c1ccccc1)CC1(O)C(=O)N(CCc2ccccc2)c2ccccc21 (stereo unspecified),7%,-0.5%,1%,-9
CCC(c1nnnn1Cc1ccco1)N(CCc1ccccc1)Cc1cc2cc(C)ccc2[nH]c1=O (stereo unspecified),20%,0.3%,-3%,1
O=C(N/N=C/c1ccncc1)c1ccccc1[N+](=O)[O-],7%,-0.5%,2%,-9
Cc1ccc(-n2nc3c(=O)n(CC(=O)NCc4ccccc4Cl)nc(C)c3c2C)cc1,3%,4.4%,2%,x
C[C@H](CO)N1C[C@H](C)[C@@H](CN(C)S(C)(=O)=O)Oc2ccc(NC(=O)Cn3cnnn3)cc2C1=O,-7%,0.0%,x,x
C=C(C)c1cccc(C(C)(C)NC(=O)N2CCCC(C)C2)c1 (stereo unspecified),-2%,-0.2%,3%,-1
CC1=NN(c2ccc(Cl)cc2)C(=O)/C1=C\c1cccn1-c1ccc(S(N)(=O)=O)cc1,1%,-5.4%,-3%,-6
Cc1cccc(OCc2nnc(SCC(=O)Nc3cccc(C(=O)N4CCOCC4)c3)n2C)c1C,-7%,-0.5%,-1%,-1
C#CCOCCOCCOCCNc1nc(N2CCN(C(=O)[C@H](CCCCN)n3cc(CN)nn3)CC2)nc(N2CCN(C(=O)[C@H](CC(N)=O)n3cc(C(N)[C@H](C)CC)nn3)CC2)n1 (stereo partly specified),-7%,1.3%,x,x
COc1ccc(C(=O)Nc2nc(C)cc(C)n2)cc1,-8%,-3.7%,3%,6
Cc1nn(C)cc1CN(C)C(=O)c1cc(-c2ccccc2)nc2ccc(Br)cc12,-2%,-0.2%,0%&12%,0
O=[N+]([O-])c1ccccc1CN1CCN(Cc2c[nH]c3ccccc23)CC1,15%,8.8%,7%,2
O=C(NNC(=S)Nc1ccc(F)cc1)C1[C@H]2CCCC[C@@H]12 (stereo partly specified),4%,1.4%,-55%,-23
O=C(COc1ccc([N+](=O)[O-])cc1Cl)Nc1ccc2[nH]c(=O)[nH]c2c1,-1%,-1.4%,x,x
S=C(NCCN1CCOCC1)N/N=C/c1ccccc1,1%,0.0%,-3%,12
O=C(COc1ncnc2ccccc12)Nc1ccc(Cl)c([N+](=O)[O-])c1,-2%,0.8%,8%,-18
Cc1cc(NC(=O)Nc2cc(C)nn2-c2ccccc2)n(-c2ccccc2)n1,2%,1.7%,-2%,3
CCOC(=O)C1(CCOc2ccccc2)CCN(Cc2ccc(OC)c(COC)c2)CC1,10%,-1.7%,25%,x
CC(C)(C)c1ccccc1NC(=O)c1cccnc1,-4%,1.3%,0%,7
C=CCn1c(SC(C)C(N)=O)nc2sc(CC)cc2c1=O (stereo unspecified),3%,u,-1%,-9

# Only Rango-impB inh and miR-21 reporter, for two of the compounds above:
Molecule	Rango-impB inh	miR-21 reporter
CCOC(=O)C1(CCOc2ccccc2)CCN(Cc2ccc(OC)c(COC)c2)CC1	-1.7%	25%
CCC(c1nnnn1Cc1ccco1)N(CCc1ccccc1)Cc1cc2cc(C)ccc2[nH]c1=O (stereo unspecified)	0.3%	-3%

# (listing goes on)
SMILES,Rango release inh,Rango-impB inh,miR-21 reporter,GLA inh pH 4.5
Oc1cccc(/C=N/Nc2ccc(Cl)nn2)c1O,4%,3.5%,1%,x
Cc1csc(SCC(=O)Nc2ccccc2C)n1,-7%,2.9%,x,x
COc1ccccc1NC(=O)c1cc(C(=O)Nc2ccccc2OC)cc([N+](=O)[O-])c1,1%,0.7%,0%,x
C=CCc1ccccc1OCC(O)CNC(C)C (stereo unspecified),8%,3.3%,0%,u
CC1(NC(=O)Cc2csc(-c3cccc(Cl)c3)n2)CCS(=O)(=O)C1 (stereo unspecified),-3%,-0.2%,x,x
Cc1ccccc1OCCSc1nnc(-c2ccncc2)n1C,-2%,-2.3%,-9%,-2
Cc1cc(S(=O)(=O)N2CCN=C2c2ccccc2)c(Cl)cc1Cl,-5%,-1.7%,-12%,9

# From PubChem
